TRPML1 ag – human mucolipin-1 channel agonism. 410,000 compounds, 0.12% hits. Q9GZU1. AID 624414. activation, % (no concentration beside the values). TRPML1-expressing cells, Ca2+ dye fluorescence, FDSS; host cell line not named in the record; reference of the full effect not given here; in the data active = activation above about 50%; inconclusive = about 30% to 50%; inactive = below about 30%; also: 0% is about no effect; the text of the record puts the active cut at 80%
Target sequence (Q9GZU1 whole entry, looked up): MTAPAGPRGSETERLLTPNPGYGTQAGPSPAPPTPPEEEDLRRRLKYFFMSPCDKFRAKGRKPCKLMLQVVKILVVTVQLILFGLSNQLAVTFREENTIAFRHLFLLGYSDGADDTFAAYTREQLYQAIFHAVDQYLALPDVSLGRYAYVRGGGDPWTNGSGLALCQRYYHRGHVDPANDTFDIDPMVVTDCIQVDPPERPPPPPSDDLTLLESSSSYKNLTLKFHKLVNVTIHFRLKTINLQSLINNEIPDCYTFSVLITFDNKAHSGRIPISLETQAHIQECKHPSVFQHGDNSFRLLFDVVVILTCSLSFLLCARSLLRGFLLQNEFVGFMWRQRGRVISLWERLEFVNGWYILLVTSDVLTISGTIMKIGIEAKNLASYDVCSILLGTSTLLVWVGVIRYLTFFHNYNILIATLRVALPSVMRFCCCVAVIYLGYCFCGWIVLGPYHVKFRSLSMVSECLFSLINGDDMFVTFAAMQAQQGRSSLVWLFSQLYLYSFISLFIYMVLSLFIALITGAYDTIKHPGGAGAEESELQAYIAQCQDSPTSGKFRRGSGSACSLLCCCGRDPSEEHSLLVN
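Cells: TRPML1-DL, 1X Tet inducer, ~16 h at 37 degrees C/5% CO2. Dye: ABD Ca8 no-wash + quencher, 45-90 min RT. Read: 10 s baseline, compound add, 110 s agonist phase; 54-4 EC80 (4uM final), 110 s antagonist phase.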
TRPV1 potentiator – potentiators of human vanilloid receptor 1 (TRPV1); Q8NER1; TRPV1-expressing cells, Fluo-8 calcium influx, capsaicin EC20 potentiation; host cell line not named in the record; control for the full effect not named in the record; potentiation, % at 8.33 µM; 320,000 compounds, 0.02% hits; AID 540277; active means potentiation above 80%; inconclusive means 30% to 80%; inactive means below 30%; also: 0% is about no effect
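Fluo-8 calcium influx in TRPV1-expressing cells, kinetic read (ex 480/em 520 nm). Compound added and read 3 min for agonist activity, followed by capsaicin at EC20 final and 2 min further read for enhancement.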
D2 PAM – potentiates the human D2 dopamine receptor allosterically; DiscoveRx D2 beta-arrestin cells, luminescence, 90 min; 100% = 57 uM dopamine signal; 360,000 compounds, 0.23% hits; P14416; potentiation, % (test concentration not listed); AID 624464; active = potentiation of 50% or more; inconclusive = 30% to 50%; inactive = 30% or less;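 also: compound concentration not given in the record; tested on top of an EC20 dose of dopamine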
Target sequence (P14416 whole entry, looked up): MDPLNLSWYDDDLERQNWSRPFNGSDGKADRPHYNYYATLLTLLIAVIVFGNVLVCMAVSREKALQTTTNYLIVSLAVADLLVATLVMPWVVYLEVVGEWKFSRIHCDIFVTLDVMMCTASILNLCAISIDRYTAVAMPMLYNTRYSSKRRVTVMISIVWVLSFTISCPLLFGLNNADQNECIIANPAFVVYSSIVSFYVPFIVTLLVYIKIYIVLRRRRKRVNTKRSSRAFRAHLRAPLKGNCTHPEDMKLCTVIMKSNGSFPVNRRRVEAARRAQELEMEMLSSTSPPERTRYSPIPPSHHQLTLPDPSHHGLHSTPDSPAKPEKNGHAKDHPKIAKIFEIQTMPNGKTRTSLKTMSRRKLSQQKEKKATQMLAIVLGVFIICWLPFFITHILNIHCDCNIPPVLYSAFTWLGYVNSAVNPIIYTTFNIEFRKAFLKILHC
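PathHunter beta-arrestin assay in DiscoveRx D2 cells. Compounds were added with an EC20 of dopamine (50 nM final) for 90 min at 37 deg C. Luminescence was read 1 h after detection reagent, with 57 uM dopamine as the EC100 control.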
CtBP-E1A blk – CtBP/E1A binding inhibition; AlphaScreen GST-E1A/His-CtBP binding, 1536-well; hits give low values; control for the full effect not named in the record; activity change, % (no concentration beside the values); 340,000 compounds, 0.49% hits; AID 651724; in the data active means activity change below about -65%; inconclusive means about -30% to -65%; inactive means above about -30%; also: % is scaled to controls: 0 for no effect and ±100 for the full control effect
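Protein mix (5X: 125 nM each GST-E1A, His-CtBP) was incubated with pinned compound 2 h at 37 deg C in dark, in 50 mM Tris pH 8.0 buffer with 300 mM NaCl. Glutathione donor and nickel acceptor beads followed; AlphaScreen signal read after 1 h.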
Six1-Eya2 inh – Six1/Eya2 interaction inhibition. AlphaScreen GST-Six1/His-Eya2 binding, biochemical; hits give low values; control for the full effect not named in the record. 360,000 compounds, 0.56% hits. activity change, % (no concentration beside the values). Q15475+O00167; in the data active = activity change below about -65%; inconclusive = about -30% to -65%; inactive = above about -30%; also: % is scaled to controls: 0 for no effect and ±100 for the full control effect
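GST-Six1 + His-Eya2 (5X stock: 250/500 nM); Tris pH 8.0, 300 mM NaCl, 0.05% BSA, 0.02% Tween 20; GSH donor/Ni acceptor beads; 1 h 37 °C dark; AlphaScreen readout.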
TRPML1 blocker – blocks the human TRPML1 channel | Q9GZU1 | TRPML1-inducible cells, Ca2+ dye fluorescence, FDSS; hits give low values; inhibition of EC80 agonist-evoked calcium signal | activity change, negative = inhibition, % (no concentration beside the values) | 390,000 compounds, 0.02% hits | AID 624415; in the data active means activity change below about -50%; inconclusive means about -30% to -50%; inactive means above about -30%;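 also: stimulus is agonist 54-4 at its EC80 concentration; % is scaled to controls: 0 for no effect and ±100 for the full control effect; compound concentration not given in the record; the text of the record puts the active cut at -80%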
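Tet-induced TRPML1-DL cells loaded with Ca8 no-wash calcium dye were read kinetically on FDSS. Compound addition was followed by EC80 agonist 54-4 (4 uM final); inhibition was read over 110 s.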
An asterisk follows results filed as active; u = inconclusive; x = no result given. Compounds were not picked by outcome (roughly 0.95% active in at least one column).

canonical_smiles | TRPML1 ag | TRPV1 potentiator | D2 PAM | CtBP-E1A blk | Six1-Eya2 inh | TRPML1 blocker
CC(C)C(OC(=O)CCC(=O)Nc1nccs1)C(=O)NC1CCCCC1 (centres undefined) | 1.1 | -3 | 1 | -5 | -3 | -9
CCC(Sc1nc2cc3c(cc2c(=O)n1Cc1ccco1)OCO3)C(=O)NCCOC (centres undefined) | 0.0 | -2 | -16 | -2 | -1 | -10
CCOC(=O)c1c(NC(=O)C2C3C=CC(C3)C2C(=O)O)sc2c1CCCC2 (centres undefined) | -0.3 | 1 | -1 | -6 | -7 | 8
O=C(c1ccc2c(c1)OCO2)N1CCN(c2ncccn2)CC1 | 0.7 | -6 | -12 | -2 | 3 | 24
COc1ccc(CSCCNC(=S)Nc2ccccc2)cc1Cl | 0.1 | -4 | -6 | -1 | -11 | 21
Cc1csc2ncc(C(=O)Nc3ccccc3Cl)c(=O)n12 | -0.6 | 2 | -5 | 2 | -1 | -4
COCc1cc(=O)n2[nH]c(N)nc2n1 | -0.1 | 3 | 1 | -10 | 2 | 11
CCn1c(SCC(=O)N/N=C/c2ccccc2OCC(=O)O)nnc1-c1ccccc1 | 0.8 | -6 | -10 | 9 | 0 | -4

(continued)
canonical_smiles | TRPML1 ag | TRPV1 potentiator | D2 PAM | CtBP-E1A blk | Six1-Eya2 inh | TRPML1 blocker
O=C(COC(=O)c1ccc2c(c1)OCCO2)NCc1ccc(Cl)cc1 | -0.3 | x | -7 | 2 | 0 | 6
O=C(Cc1n[nH]c(=O)c2ccccc12)NCc1ccccn1 | -0.3 | -15 | 4 | 5 | 6 | -3
Cc1cc(C)n(-c2nc(C(F)(F)F)nc3ccccc23)n1 | -0.1 | 0 | -3 | 14 | 4 | -3
O=C(O)c1cccc(NC(=S)N/N=C/c2c[nH]c3ccccc23)c1 | -0.2 | 0 | -1 | -2 | -20 | 27
CCCCOC(=O)Nc1sc2c(c1C(=O)OC)CCC2 | 0.4 | -11 | -15 | 10 | 16 | -12
COc1cc(/C=C2/C(=O)NN(c3ccc(F)cc3)C2=O)cc(Cl)c1O | -0.8 | -2 | 0 | 0 | 27 | -16
CCCCNC(=O)N(c1c(N)n(Cc2ccccc2)c(=O)[nH]c1=O)C1CCCC1 | 1.6 | -1 | -2 | 2 | 9 | -15
CCOC(=O)C1CCN(C(=O)c2cn(C)c(=O)c3cc(OC)c(OC)cc23)CC1 | 3.8 | 12 | 5 | 6 | -1 | 14

(next part)
canonical_smiles | TRPML1 ag | TRPV1 potentiator | D2 PAM | CtBP-E1A blk | Six1-Eya2 inh | TRPML1 blocker
CCCCOc1ccc(C(=O)Nc2ccc(OCC(=O)N3CCOCC3)cc2)cc1 | 0.3 | 2 | 8 | 0 | -2 | -12
Cc1cc(O)c(S(=O)(=O)c2ccccc2)c(C)c1NS(=O)(=O)c1ccccc1 | 2.8 | u | -4 | -2 | 1 | 15
O=C(CN1C(=O)c2ccccc2C1=O)Nc1ccccc1C(=O)NC1CCCCC1 | 2.7 | 20 | 0 | 5 | 4 | 5
CC1(C(=O)NCc2cccs2)CCN1C(=O)Cc1ccc(Cl)cc1Cl (centres undefined) | -0.3 | x | -19 | 2 | -2 | -3
COC(=O)C1=C/CCCN(C(c2ccccc2)c2ccccc2)/C=C\1C(=O)OC | 3.7 | x | 0 | 13 | 8 | 7
O=C(CC(NC(=O)c1ccccc1)c1ccccc1)Nc1ccc(F)c(F)c1 (centres undefined) | 0.6 | 15 | -4 | 7 | -3 | 7
COc1cccc2c(=O)n(CC(=O)N3CCc4ccccc43)ccc12 | 0.7 | 3 | -3 | 4 | 2 | 14
CC(=O)c1ccc(NC(=O)C(C)NCc2ccccc2Cl)cc1 (centres undefined) | -0.4 | -11 | 0 | 4 | -6 | 33

The results go on.
canonical_smiles | TRPML1 ag | TRPV1 potentiator | D2 PAM | CtBP-E1A blk | Six1-Eya2 inh | TRPML1 blocker
Cc1nn(C(C)(C)C)c(OC(=O)c2cccs2)c1Sc1ccccc1 | 1.1 | 0 | -4 | 11 | 16 | -13
O=C(CSc1ccc(Cl)cc1)Nc1cccc(-c2nc3ccccc3[nH]2)c1 | 1.0 | 11 | 3 | -27 | 3 | 9
CCC1CCCCN1CCNC(=O)C1CCN(S(=O)(=O)c2cccc3nsnc23)CC1 (centres undefined) | 2.4 | 13 | -9 | x | 19 | -22
COc1ccccc1N(CC(=O)N/N=C(\C)c1ccccc1O)S(=O)(=O)c1ccc(C)cc1 | 0.3 | 9 | -25 | -13 | -13 | -14
O=C1c2ccccc2C(c2nnnn2-c2ccc3c(c2)OCCO3)N1Cc1cccs1 (centres undefined) | 0.7 | x | x | 9 | 2 | x
Cc1cccc(C)c1NC(=S)NN(Cc1ccccc1)c1ccccc1 | 2.2 | -3 | -20 | 6 | 4 | 13
COc1ccccc1CNC(=O)c1cc(-c2ccccc2C)n(CC2CC(c3cccc([N+](=O)[O-])c3)=NO2)n1 (centres undefined) | 0.6 | 25 | -8 | -19 | -23 | 16
CC(C)C(c1nnnn1Cc1ccco1)N1CCN(c2cccc(Cl)c2)CC1 (centres undefined) | 2.3 | 6 | -20 | -9 | -13 | 43

The list continues:
canonical_smiles | TRPML1 ag | TRPV1 potentiator | D2 PAM | CtBP-E1A blk | Six1-Eya2 inh | TRPML1 blocker
COC(=O)[C@]12CCCCC=C1N(Cc1ccccc1)C(=O)[C@H](CC(=O)NCc1ccc(OC)c(OC)c1)C2 | -0.5 | x | x | 1 | 6 | x
COc1ccc(Nc2nc(N)nc(CSc3n[nH]c(-c4ccccc4)n3)n2)cc1 | -0.3 | 0 | 5 | -12 | -10 | 40
CS(=O)(=O)c1ccc(C(=O)Nc2ccc(N3CCOCC3)cc2)c(Cl)c1 | 0.0 | 5 | -1 | -6 | 5 | -10
O=C(/C=C/c1ccc(F)cc1)NCC1(c2ccccc2)CCOCC1 | -0.4 | -16 | -10 | -16 | -10 | 16
Cc1ccc(C(=O)c2ccccc2C(=O)OCC(=O)N2CCCC2)cc1 | -0.4 | x | -5 | 2 | 9 | 25
COC(=O)c1[nH]c2cc(OC)ccc2c1NC(=O)CCN1CCCC(C)(C)C1 | -0.3 | -2 | -22 | -13 | -12 | 22
COc1cc(/C=C/C(=O)OCC(=O)NCCC2=CCCCC2)cc(OC)c1OC | 0.1 | x | -6 | -2 | -2 | 1
CCOc1ccccc1C(=O)Nc1nccs1 | 1.5 | -14 | -14 | -12 | -9 | -7

Continued:
canonical_smiles | TRPML1 ag | TRPV1 potentiator | D2 PAM | CtBP-E1A blk | Six1-Eya2 inh | TRPML1 blocker
COc1cnc(-c2ccccc2)nc1Oc1ccccc1C | 0.4 | -7 | 0 | 13 | 32 | 3
CCC(=O)Nc1nc2ccccc2n1Cc1ccc(C)cc1 | -0.4 | -1 | 12 | -1 | -1 | 19
COc1ccc2c(c1)c(C(=O)O)c(C)n2CCc1ccc(OC)c(OC)c1 | 0.3 | -5 | 2 | -18 | -19 | 1
CC(NC(=O)COC(=O)c1ccc([N+](=O)[O-])s1)c1ccccc1 (centres undefined) | -0.2 | 5 | 25 | 3 | 8 | -2
CS(=O)(=O)c1ccc(C(=O)Nc2nc(-c3ccco3)c(-c3ccco3)s2)cc1 | -0.6 | 11 | 3 | -17 | u | -6
CCCn1c(SC(C)C(=O)NCC2CCCO2)nc2cc(Cl)ccc2c1=O (centres undefined) | 0.6 | -3 | -21 | -22 | 0 | 51
Cc1ccc(CCNC(=O)C2CCN(S(=O)(=O)c3ccc4c(c3)oc(=O)n4C)CC2)cc1 | -0.2 | 4 | -1 | 2 | 4 | 0
COc1ccc(/C=N/NC(=O)CCc2n[nH]c(=O)[nH]c2=O)cc1O | 1.0 | -17 | -9 | -5 | 2 | 5

Later entries:
canonical_smiles | TRPML1 ag | TRPV1 potentiator | D2 PAM | CtBP-E1A blk | Six1-Eya2 inh | TRPML1 blocker
O=C(NC(=S)N1CCN(CCO)CC1)C12CC3CC(CC(C3)C1)C2 | 0.1 | -15 | -2 | 3 | -3 | -20
CCCCc1nc2cc(C(=O)N3CCCCC3CC(=O)OCC)ccc2o1 (centres undefined) | 1.2 | 1 | 22 | -3 | -1 | 1
NC(=O)c1ccc(Oc2ccc(Cl)cc2)c([N+](=O)[O-])c1 | 2.5 | -24 | -10 | -10 | -3 | 16
CC1(C(=O)NS(=O)(=O)c2ccccc2C(F)(F)F)CCN1C(=O)CCC1CCCC1 (centres undefined) | -0.3 | x | 5 | 7 | 14 | x
Cc1ccccc1NC(=O)CCNS(=O)(=O)c1ccc2[nH]c(=O)oc2c1 | 0.7 | u | -5 | x | 0 | 26
Cc1cc(NC(=O)/C=C/c2ccc(Cl)cc2)no1 | -0.4 | 18 | -13 | -8 | -8 | 1
CCCNC(=O)c1ccccc1C(=O)NCCC | -0.4 | -9 | 2 | 12 | 7 | -24
CCCc1cc(C(=O)Nc2cc(C)ccc2O)no1 | 1.2 | 0 | 5 | -5 | 3 | -16

Shown field by field: part of the list above.
molecule: NC(=O)c1ccc(Oc2ccc(Cl)cc2)c([N+](=O)[O-])c1
  TRPML1 ag: 2.5
  TRPV1 potentiator: -24
  D2 PAM: -10
  CtBP-E1A blk: -10
  Six1-Eya2 inh: -3
  TRPML1 blocker: 16
molecule: CC1(C(=O)NS(=O)(=O)c2ccccc2C(F)(F)F)CCN1C(=O)CCC1CCCC1 (centres undefined)
  TRPML1 ag: -0.3
  TRPV1 potentiator: x
  D2 PAM: 5
  CtBP-E1A blk: 7
  Six1-Eya2 inh: 14
  TRPML1 blocker: x

4 entries from above, as labelled records:
structure: O=C(c1ccc2c(c1)OCO2)N1CCN(c2ncccn2)CC1
  TRPML1 ag: 0.7
  TRPV1 potentiator: -6
  D2 PAM: -12
  CtBP-E1A blk: -2
  Six1-Eya2 inh: 3
  TRPML1 blocker: 24

structure: Cc1cc(O)c(S(=O)(=O)c2ccccc2)c(C)c1NS(=O)(=O)c1ccccc1
  TRPML1 ag: 2.8
  TRPV1 potentiator: u
  D2 PAM: -4
  CtBP-E1A blk: -2
  Six1-Eya2 inh: 1
  TRPML1 blocker: 15

structure: COc1ccccc1CNC(=O)c1cc(-c2ccccc2C)n(CC2CC(c3cccc([N+](=O)[O-])c3)=NO2)n1 (centres undefined)
  TRPML1 ag: 0.6
  TRPV1 potentiator: 25
  D2 PAM: -8
  CtBP-E1A blk: -19
  Six1-Eya2 inh: -23
  TRPML1 blocker: 16

structure: CCCCNC(=O)N(c1c(N)n(Cc2ccccc2)c(=O)[nH]c1=O)C1CCCC1
  TRPML1 ag: 1.6
  TRPV1 potentiator: -1
  D2 PAM: -2
  CtBP-E1A blk: 2
  Six1-Eya2 inh: 9
  TRPML1 blocker: -15
